From PubChem
Ba CapD inh: inhibitors of Bacillus anthracis CapD enzyme. purified CapD enzyme, fluorescence intensity read-out; stronger effect = lower value; some hits fall short of the stated cut. z-score (concentration not given with the values). 140,000 compounds, 0.23% hits;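 active = z-score under -4 in either of two replicates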;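 note: stock transfer was 100 nL into about 40 µL; score is relative to mean and spread of the plate; one replicate is shown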
AID504770: growth inhibitors of E. coli YBA685 in a screen for V. cholerae RctB (chromosome II replication) inhibitors; AID 504770; E. coli YBA685 rctB-dependent plasmid, OD600 growth, 3 h; stronger effect = lower value; 130,000 compounds, 0.27% hits; z-score (test concentration not listed);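 active = z-score under -2 on both plates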;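 note: wells of about 30 µL received 100 nL stock; score is relative to mean and SD of the test wells; the first replicate is given; strong numbers were not always called active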
Numbers without * were called inactive; nt = not tested or not shown; & = joins results of further samples.

SMILES	Ba CapD inh	AID504770
NC(N)=NC(N)=Nc1ccccc1Cl	0.6	nt
O=C(Cc1ccccc1)Nc1ccc2ccccc2c1	-0.49	nt
Cc1ccc(C(C)C)c(OCC(O)CNC(C)C)c1 (stereo not drawn)	0.36	-0.3
CCc1nnc2n1N=C(c1ccc3c(c1)OCCO3)CS2	-1.1	-0.65
COc1cccc(CN2CCC(NC(=O)CCC(C)C)C2)c1[N+](=O)[O-] (stereo not drawn)	0.2	nt
Cc1ccc2[nH]c(=O)cc(C(=O)OCC(=O)c3ccc(F)cc3)c2c1	-0.14	1.1
Cc1cc(=O)n2nc(N3CCCC(C(=O)N4CCN(c5ccccc5)CC4)C3)sc2n1 (stereo not drawn)	0.27	-0.4
CCOC(=O)C1=C(C)N=c2s/c(=C\c3cc(Br)c(O)c(OC)c3)c(=O)n2C1c1ccc(OC)c(OC)c1 (stereo not drawn)	-0.1	nt
CCc1nc(SCC(=O)Nc2cc(C)on2)n[nH]1	0.005	-1
Cc1ccc(N2CS(=O)(=O)CC2=O)cc1	0.57	-0.05
CCOC(=O)c1cnc2ccc(C)cc2c1Nc1ccc(C)cc1	-0.02	nt
CCC1SC(CC)C(=O)N(CC(=O)Nc2ccc(F)cc2F)C1=O (stereo not drawn)	nt	-0.45
CCNc1sc(C(=O)OCC)c(N)c1C#N	nt	-0.05
CCC(CO)NC(=S)NC1CC2CCC1C2 (stereo not drawn)	-0.46	nt
COc1ccc(CCNCC(O)Cn2ccc3ccccc32)cc1OC (stereo not drawn)	0.23	0.4
CC(C)OC(=O)c1cc2c(ccn2-c2ccc(F)cc2)n1C	nt	0.1
COc1nc2ccccc2cc1/C=C/C(=O)O	nt	-0.9
COc1ccc2c(c1)C=CC1(O2)N(c2ccccc2)c2ccccc2C1(C)C (stereo not drawn)	-0.43	nt
COC(=O)C12C3CCC4C5C3C1C5(C(=O)OC)C42 (stereo not drawn)	nt	-0.25
O=C(CCCn1c(=O)[nH]c2ccccc2c1=O)N(Cc1ccccc1)Cc1ccccc1	-0.52	-1.1

Entries of single compounds, looked up by structure:
Entry for CCC(CO)NC(=S)NC1CC2CCC1C2 (stereo not drawn) → Ba CapD inh = -0.46; AID504770 = nt
Entry for NC(N)=NC(N)=Nc1ccccc1Cl → Ba CapD inh = 0.6; AID504770 = nt
Entry for COc1nc2ccccc2cc1/C=C/C(=O)O → Ba CapD inh = nt; AID504770 = -0.9

(next part)
SMILES	Ba CapD inh	AID504770
Cc1cc(C)nc(SCCC(=O)O)n1	nt	2.1
COc1cc([N+](=O)[O-])ccc1-c1ccc(/C=N/c2c(-c3ccco3)nc3ccccn23)o1	-0.16	nt
CC(C)CCCC(C)C1CCC2C3CC=C4CC(OC(=O)C56CC7CC(CC(C7)C5)C6)CCC4(C)C3CCC12C (stereo not drawn)	-0.48	nt
Cn1nccc1NC(=O)CSCC(=O)O	-0.26	-0.65
CC(C)NC(=O)NNc1cc(N(C)C)c(C#N)c(N(C)C)n1	0.38	-1.2
Cc1c(C#N)c2ccccc2n1CC(=O)O	-0.045	1.9
Cc1ccc2c(c1)-c1c(cnn1CC(=O)N(C)C1CCCCC1)CO2	-0.24	1.9
COCc1cc(C)nc2sc(C(=O)N3CCC(C)CC3)c(N)c12	-0.28	-0.15
CC1=C(C(=O)Nc2cccc(F)c2)C(c2ccccn2)C2=C(CC(C)(C)CC2=O)N1 (stereo not drawn)	13	nt
N#Cc1ccc(COC(=O)c2cnc3ncccn3c2=O)cc1	nt	-0.2
O=C(NN1C(=O)c2cc([N+](=O)[O-])cc3cc([N+](=O)[O-])cc(c23)C1=O)c1ccc([N+](=O)[O-])cc1	-0.25	nt
COc1ccccc1NC(=S)N=Nc1c(O)n(CN2CCN(c3ccccc3)CC2)c2ccccc12	0.21	0.45
O=C(CSc1nc2cc(C(=O)NCCCN3CCCCC3)ccc2c(=O)n1CC1CCCO1)c1ccccc1 (stereo not drawn)	-0.1	nt
CC(c1ccccc1)n1cc(C(=O)NCCN2CCCCCC2)nn1 (stereo not drawn)	nt	1.4
O=C(CSc1nccn(-c2cccc(F)c2)c1=O)NC1CCCCC1	3.1	0.75
N#Cc1ccc(C(=O)OCc2ccc(-c3cccc(Cl)c3Cl)o2)c(F)c1	0.38	-0.85
O=c1[nH]c(=S)[nH]c2ccccc12	1.1&1.5	0.15&1.1
CCCn1cnc2cc(NCc3ccc(Cl)cc3Cl)ccc21	0.83	0.8
Cn1c(CNc2nc3ccccc3n2CCN2CCCCC2)nc2ccccc21	-0.34	-0.65
COc1ccc(CCNC(=O)CCCn2nc(C)n3ccnc3c2=O)cc1OC	-0.72	-0.6
COc1ccc(-n2c(SCC(=O)Nc3ccc(OC)cc3OC)nc3n[nH]c(C)c3c2=N)cc1	2.9	nt
CC(=O)NC1C(=O)Nc2c1cccc2C(F)(F)F (stereo not drawn)	3	-0.2
COCCN(C(=S)Nc1ccccc1C)C1CCN(C(C)C)CC1	0.14	0.5
COc1ccc(S(=O)(=O)N2CCN(C(=O)c3cc(C)oc3C)CC2)cc1	nt	-0.3
COc1cc2c(cc1OC)C(C)=NCC2	89	nt
CCOC(=O)C(Sc1n[nH]c(N)n1)c1ccccc1 (stereo not drawn)	nt	1.7
CC(=O)Nc1ccc(C(=O)CSc2nccn2C)cc1	-0.48	-0.2
Cc1ccn2c(NC3CCCCC3)c(C)nc2c1	nt	0.2
COc1ccc(CNc2ccccc2C(=O)O)c(OC)c1OC	134	-0.9
O=C(O)CCC(=O)N1N=C2/C(=C/c3ccco3)CCCC2C1c1ccco1 (stereo not drawn)	nt	-0.65
O=C(CC1C(=O)NCCN1C(=O)Nc1ccccc1)Nc1cc(Cl)ccc1Cl (stereo not drawn)	0.24	0.1
CCCCCSc1nnc(-c2ccc(Cl)cc2Cl)o1	0.03	1.5
COc1ccc(N(Cc2cc3cccc4c3n(c2=O)CCC4)C(=O)c2ccc(C(F)(F)F)cc2)cc1	-0.6	nt
O=C1c2ccccc2-c2onc3c(N4CCN(c5ccccc5)CC4)ccc1c23	0.49	-0.5
CCOc1cc(-c2nc3sc4c(c3c(=O)[nH]2)CCCC4)ccc1OCCOc1cccc(OC)c1	0.61	nt
CCc1cccc2c1NC(C)(C)c1sn(-c3ccc(C)cc3)c(=S)c1-2	0.18	nt
Cc1cccc(NC(=O)CSCC(=O)Nc2ccc(S(N)(=O)=O)cc2)c1	nt	0.1
CS(=O)(=O)c1ccc(N(Cc2ccccn2)C(=O)c2cccs2)cc1	-0.15	nt
CCC(Oc1ccc(F)cc1)C(=O)Nc1nonc1-c1ccccc1 (stereo not drawn)	-0.11	0.55
COc1ccc(Cc2nnc3n2N=C(C(C)(C)C)CS3)cc1	nt	0.15
COc1ccc(-c2nc3c4c(-c5ccc(OC)cc5)c(-c5ccc(OC)cc5)oc4ncn3n2)cc1	-0.03	nt
CC(C)NC(=O)Cn1ncc2c3ccccc3n(Cc3ccc(F)cc3)c2c1=O	3.7	-0.35
CCN1C(=O)CC(C(=O)NC)SC1=Nc1cc(Cl)c(O)c(Cl)c1 (stereo not drawn)	nt	-0.6
Nc1ccc2nc(Cc3ccccc3)[nH]c2c1	2.2	-0.05
O=C1NN=CC1CCCNC(=S)Nc1cccc(C(F)(F)F)c1 (stereo not drawn)	-0.14	nt
CCOc1c(OC)cc(/C=C2/C(=O)N(c3ccc(S(N)(=O)=O)cc3)N=C2C)cc1[N+](=O)[O-]	0.43	nt
C=C1C2(C(=O)Nc3nccs3)CCC(C2)C1(C)C (stereo not drawn)	nt	-1.2
O=C(COC(=O)/C=C/c1ccccc1)NC1CCCc2ccccc21 (stereo not drawn)	-1.1	1.5
Nc1nc(-c2ccncc2)nc2sc3c(c12)CCCCC3	86	-0.4
CNC(=O)c1ccccc1SCCC(=O)O	0.13	-0.95
COc1cc(C2=N/C(=C\c3cc(Br)cs3)C(=O)O2)cc(OC)c1OC	-2.2	nt
O=C(NCCc1c[nH]c2ccc(O)cc12)OCc1ccc(OC(F)F)cc1	-0.17	nt
CC(=O)Nc1ccc(NC(=O)c2ccccc2)cc1	0.56	-0.65
O=c1ccn(-c2cccc(C(F)(F)F)c2)nc1-c1ccn(-c2ccccc2F)n1	-0.76	nt
COc1ccc(C2OC(COc3ccccc3)CN(C(=O)c3ccccc3)O2)cc1OC (stereo not drawn)	-2.3	-0.2
Cc1cc(C)n(-c2nnc(C)n2/N=C/c2ccc(N(C)C)cc2)n1	-0.43	nt
Cc1c(Cl)cccc1NC(=O)c1ccc(-n2cncn2)c([N+](=O)[O-])c1	0.43	nt
CCOC(=O)c1ccc(N/N=C2/C(=O)C3(C)CCC2C3(C)C)cc1 (stereo not drawn)	-0.06	0.4
COc1cccc2sc(NC(=O)c3ccc(Br)cc3)nc12	1	0.05
Cc1nc(CSc2ccc(Cl)cc2)cc(NCc2ccccc2)n1	-0.33	nt

The results go on.
SMILES	Ba CapD inh	AID504770
O=C(NS(=O)(=O)c1ccc(Br)cc1)c1ccccc1	-0.35	2.5
Nc1c(C(=O)NCc2ccccn2)nnn1-c1ccc(OC(F)(F)F)cc1	0.74	0.85
COC(=O)CCC(=O)Nc1cccc2ccccc12	nt	1
Nc1cc(C(F)(F)F)ccc1-n1cncn1	29	-0.7
Cn1cnc(S(=O)(=O)Nc2ccc(N3CCCCC3)cc2)c1	1	-0.55
COc1cccc2cc(C(=O)N3CCCCC3)c(=O)oc12	nt	-0.25
NS(=O)(=O)c1ccc(CCNC(=O)NC2CC(=O)N(c3ccccc3)C2)cc1 (stereo not drawn)	nt	-0.15
CN(C)c1ccc(CN(C)C2CCCCC2)cc1	0.3	-0.65
Cc1[nH]c2ccccc2c1SCCNC(=O)c1cccc2ccccc12	0.37	0.6
CCOc1ccccc1/C=c1\s/c(=C(/C#N)C(N)=O)n(CCN2CCOCC2)c1=O	nt	-0.05
CCCCS(=O)(=O)Nc1cc(C(C)(C)C)ccc1O	nt	-0.1
CC(C)(C)/C(=N/O)c1cccs1	-0.14	1.7
Cc1cccc(NC(=O)c2ccccc2N)n1	62	-2
O=C(N1CCCCC1)C1(c2ccc(Cl)cc2)CCCC1	-0.07	-1
COCCNC(=O)c1cnc(N2CCCC2)nc1	2.7	-1.5
N#Cc1c(-c2ccc(F)cc2)noc1N	0.33	-1.4
CSc1ccc(/C=N/n2nnnc2Nc2ccccc2)cc1	8.5	1.6
O=C(NCCCN1CCCC1=O)c1ccc(N2CCCC2=O)cc1	0.11	-1
Nc1c(C(=O)Nc2ccc([N+](=O)[O-])cc2)sc2nc(-c3cccs3)cc(C(F)(F)F)c12	1.3	nt
CCO/C=C(\C#N)S(=O)(=O)C(C)C	-0.28	nt

Overlap with the part before: 6 compounds, followed by the next part.
SMILES	Ba CapD inh	AID504770
COCCNC(=O)c1cnc(N2CCCC2)nc1	2.7	-1.5
N#Cc1c(-c2ccc(F)cc2)noc1N	0.33	-1.4
CSc1ccc(/C=N/n2nnnc2Nc2ccccc2)cc1	8.5	1.6
O=C(NCCCN1CCCC1=O)c1ccc(N2CCCC2=O)cc1	0.11	-1
Nc1c(C(=O)Nc2ccc([N+](=O)[O-])cc2)sc2nc(-c3cccs3)cc(C(F)(F)F)c12	1.3	nt
CCO/C=C(\C#N)S(=O)(=O)C(C)C	-0.28	nt
CN1C(=O)CSc2ccc(NC(=O)N3CCN(c4ccccn4)CC3)cc21	2.2	0.25
CCn1c(C(=O)NCCC2=CCCCC2)cc2oc3ccccc3c21	2	0.3
Cc1c(C(=O)N2CCOCC2)sc2ncnc(N3CCN(c4ccccc4F)CC3)c12	-0.44	nt
COc1ccc(C2=NN(C(C)=O)C3(SC(C(C)=O)=NN3c3ccccc3)N2C)cc1 (stereo not drawn)	-0.4	nt
O=C1CS/C(=N/S(=O)(=O)c2ccccc2)N1C1CCCCC1	nt	-0.9
CCCCc1ccc(NC(=O)NCCSCc2ccco2)cc1	0.17	nt
CCN(CC)S(=O)(=O)c1ccc(-c2cn3cccc(C)c3n2)cc1	45	nt
Cc1cc(NC(=O)CSc2nc3ccccc3c(=O)n2CC2CCC(C(=O)NCCc3ccccc3)CC2)no1 (stereo not drawn)	-0.58	nt
O=C(CNCCN1CCOCC1)Nc1ccc2c(c1)OCCO2	nt	-0.2
O=C(CCc1nc2ccccc2s1)NCc1cccs1	nt	-0.05
Clc1ccc(Nc2nc(NCCN3CCOCC3)nc(Nc3ccc(Cl)cc3)n2)cc1	-0.17	2.4
C=CCSc1nnc(NC(=O)CSc2nc(C)cc(=O)[nH]2)s1	nt	-1.1
COc1ccc(-c2noc(N3CCC(C(=O)NCCCN4CCCCC4)CC3)n2)cc1	0.17	-0.45
COc1ccc(S(=O)(=O)Nc2cncc(C(=O)NCc3ccc(C)cc3)c2)cc1	17	-0.75
CC(N=C1NS(=O)(=O)c2ccccc21)C(=O)OCc1ccccc1F (stereo not drawn)	nt	-0.35
CN(C)/C=C/S(=O)(=O)c1ccc(Cl)cc1	-0.42	3
Cc1[nH]n(-c2ccccc2)c(=O)c1C(c1ccc(F)cc1)c1c(C)[nH]n(-c2ccccc2)c1=O	-0.48	nt
O=C(Cn1[nH]c(=O)c2ccccc2c1=O)OCN1C(=O)c2ccccc2C1=O	nt	-0.2
CCOC(=O)C1=C(C)N=C2SCCC(=O)N2C1/C=C/c1ccccc1 (stereo not drawn)	nt	-0.2
Cc1nc(C)c(-c2ccnc(N)n2)o1	31	1.9
COc1ccccc1NC(=O)c1cccc(Cl)c1	-0.18	-0.8
CCN(CC)c1nc(-c2ccccn2)nc(-c2ccc(Cl)cc2)c1C#N	0.03	nt

Quoted at random: 2 records from the list, in no set order.
SMILES	Ba CapD inh	AID504770
O=C(Cn1[nH]c(=O)c2ccccc2c1=O)OCN1C(=O)c2ccccc2C1=O	nt	-0.2
CCCCc1ccc(NC(=O)NCCSCc2ccco2)cc1	0.17	nt

This is a subset; rates above refer to the full screens.
